Screening data (PubChem BioAssay)
eIF4H FP inh = inhibitors of RNA binding by human eIF4H; actives 0.94% (n = 290,000); inhibition, % at 35 µM; AID 2012; eIF4H fluorescence polarization binding assay;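 active = 50% or more with normal probe brightness, or confirmed in later tests; about a fifth of its hits are not listed in these tables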;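 also: calls also rest on retests at 20 µM and on dose response follow-up; 0% = protein and probe with vehicle and 100% = probe without protein; strong numbers were not always called active; many hits fall short of the cut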
CSC inhib = cancer stem cell inhibition; cancer stem cell-like cells viability, luminescence; inhibition, % at 7.5 µM; actives 1.1% (n = 300,000); AID 2717;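 active = mean at 75% or more and at least half the replicates too; tested in HMLE shEcad cells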;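 also: 0% = median of negative and 100% = median of positive control wells; the first replicate is given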
HIV Env fusion = HIV envelope-mediated fusion inhibition | HeLa-JRFL Env/CEM21 cell fusion, luciferase | actives 1.1% (n = 360,000) | inhibition, % at 12.3 µM;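 active = mean replicate inhibition score of at least 50 and every replicate individually at or above 50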;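 also: 0% = plate neutral controls and 100% = maraviroc near 300 nM; one replicate is shown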
MT1-MMP act inh = inhibitors of human MT1-MMP activation | GFP/RFP ratio change, % at 20 µM | actives 0.061% (n = 360,000) | HT1080 RFP-PRO-GFP cells, GFP/RFP ratio fluorescence, overnight; percent of plate control window, DMSO zero | P50281;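 active = GFP/RFP ratio change of at least 30% with cell ATP level not reduced by more than half and red fluorescence within 50% of control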; also: strong numbers were not always called active
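Test system: HT1080 cells expressing an RFP-PRO-GFP fluorescent reporter construct / Compound dosing: single-point 20 µM compound, 1% DMSO / Schedule: cells overnight before dosing, compound overnight, 37 °C, 5% CO2 / Evaluation: GFP/RFP fluorescence ratio / Control set: DMSO and RFP-L50D-GFP cell wells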
Yeast UUG start = yeast start codon fidelity modulation; S. cerevisiae UUG-firefly luciferase reporter, luminescence/redox ratio; activity score, % at 18.7 µM; actives 0.13% (n = 350,000);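 active = replicate mean at a twofold rise or more, about +100% in these data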;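 also: firefly luciferase made from a UUG start codon reports start codon fidelity; reporter light over untreated wells divided by growth signal over untreated wells; some hits fall short of that in this replicate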
Rce1 inh = inhibitors of yeast Ras-converting enzyme; yeast membranes, quenched prenylated peptide cleavage fluorescence; Q03530; calls only; actives 0.27% (n = 290,000);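 active = fall in fluorescence gain of 50% or more versus controls, with final raw signal at or below 3038400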;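 also: plate controls were neutral control wells for no effect and wells lacking membranes for full effect; tested at 10 µM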
PABP polyA inh = PABP-poly(A) binding inhibition; inhibition, % at 35 µM; P11940; PABP-poly(A) RNA binding, fluorescence polarization; actives 1% (n = 290,000);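 active = 50% or more with normal probe brightness, or confirmed in later tests; about a fifth of its hits are not listed in these tables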;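 also: calls also rest on retests at 20 µM and on dose response follow-up; controls were probe without protein and protein plus probe with vehicle; some compounds called inactive have numbers as strong as hits; many hits fall short of the cut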
Target sequence (P11940 whole entry, looked up): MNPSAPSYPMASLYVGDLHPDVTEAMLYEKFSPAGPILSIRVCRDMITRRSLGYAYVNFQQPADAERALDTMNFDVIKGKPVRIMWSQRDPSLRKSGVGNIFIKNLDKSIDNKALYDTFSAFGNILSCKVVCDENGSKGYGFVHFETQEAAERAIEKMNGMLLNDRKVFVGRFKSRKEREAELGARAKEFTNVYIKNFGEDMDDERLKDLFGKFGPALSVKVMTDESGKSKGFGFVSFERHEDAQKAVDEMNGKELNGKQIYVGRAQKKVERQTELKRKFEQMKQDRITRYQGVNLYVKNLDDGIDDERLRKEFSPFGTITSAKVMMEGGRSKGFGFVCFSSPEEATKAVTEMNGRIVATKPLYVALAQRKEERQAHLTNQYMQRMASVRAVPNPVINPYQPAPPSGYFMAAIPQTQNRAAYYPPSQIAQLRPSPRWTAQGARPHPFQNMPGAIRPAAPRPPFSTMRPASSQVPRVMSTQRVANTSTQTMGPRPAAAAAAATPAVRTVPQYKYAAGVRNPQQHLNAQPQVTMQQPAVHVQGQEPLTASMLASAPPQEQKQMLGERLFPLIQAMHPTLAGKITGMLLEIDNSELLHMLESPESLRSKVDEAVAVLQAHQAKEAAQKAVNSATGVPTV
eIF4H FP inh retest = second read-out of eIF4H FP inh, no call of its own (marks repeat the call); inhibition, %; compound at 20 µM; confirmation average;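 mean of two retest wells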
PABP polyA inh retest = second read-out of PABP polyA inh, no call of its own (marks repeat the call); inhibition, %; compound at 20 µM; confirmation repeats;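 mean of two retest wells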
MT1-MMP act inh RFP = also measured in MT1-MMP act inh; calls as there; RFP signal change, %; measured here: RFP expression control read;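 0 = vehicle wells; hits needed this value within 50% of zero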
Numbers without * were called inactive; i = inactive; . = not tested or not shown; + = active, no number. This is a subset; rates above refer to the full screens.

SMILES | eIF4H FP inh | CSC inhib | HIV Env fusion | MT1-MMP act inh | MT1-MMP act inh RFP | Yeast UUG start | Rce1 inh | PABP polyA inh | others
Cc1cccc(-n2ncc(C(=O)NC3CCCC3)c2C2CCN(C(=O)OC(C)(C)C)CC2)c1 | -14 | -10 | 16 | . | . | 4 | i | 7
Cc1ccc(CNC(=O)C2CCC(=O)N(Cc3ccc(Cl)cc3)C2)cc1F (stereo not drawn) | -9 | -4 | 11 | 4 | -1 | 3 | i | 3
CC(C)(C)c1ccc(OCCCCCCN2CCNCC2)cc1 | . | 64 | 0 | 7 | -3 | -15 | . | .
CC(=O)c1ccc(S(=O)(=O)NC2CC(=O)N(c3ccc(C)cc3)C2)cc1 (stereo not drawn) | . | 2 | 1 | -3 | -4 | 0 | i | .
O=C(COC(=O)CN1C(=O)c2cccc([N+](=O)[O-])c2C1=O)NC1CCS(=O)(=O)C1 (stereo not drawn) | -2 | -8 | -5 | 0 | 5 | . | i | 2
COC(=O)c1nnn(-c2cc(Cl)cc(Cl)c2)c1C(=O)OC | -14 | -12 | 4 | 2 | 2 | . | i | 1
COc1ccccc1C(=O)OCc1ccc2sc(C)nc2c1 | -17 | 4 | 5 | 6 | 4 | . | i | -7
CN(C)S(=O)(=O)c1ccc(N2CCCC2)c(C(=O)Nc2nc3ccccc3s2)c1 | -2 | 45 | 37 | 6 | -10 | -22 | i | 62 | eIF4H FP inh retest=-7;PABP polyA inh retest=1
COc1ccc(S(=O)(=O)N2CCCC2CNC(=O)C(=O)NCc2ccc3c(c2)OCO3)cc1 (stereo not drawn) | . | . | -1 | -8 | -5 | 1 | i | .
O=C(NCc1ccc(F)cc1)c1ccc2c(c1)S(=O)(=O)c1ccccc1C2=O | . | -14 | -18 | 3 | 0 | 1 | i | .
COc1ccc(OCCCC(=O)Nc2ccc3c(c2)OCCO3)cc1 | -6 | -1 | -6 | 10 | 3 | 9 | i | -2
CCCOc1ccc(C(=O)NCCO)cc1 | -11 | 7 | -263 | 7 | 2 | -11 | i | 0
CC1(C(=O)Nc2ccc(Cl)c(C(F)(F)F)c2)Cc2c(-c3ccc4c(c3)OCO4)ccnc2O1 (stereo not drawn) | . | . | 15 | -2 | 1 | -19 | . | .
COc1ccc(/C=N/NC(=O)Cc2csc(Nc3cccc(C(F)(F)F)c3)n2)c(OC)c1 | 2 | 1 | . | 5 | 5 | -12 | i | 6
CCN1CCN(C(=O)c2cc(COc3ccc(F)c(F)c3)on2)[C@@H](C)C1=O | . | . | 15 | 3 | -6 | -2 | . | .
Cc1cc(/C=N/NC(N)=S)c(C)n1-c1cccc(Cl)c1 | 1 | 1 | -13 | -1 | -6 | . | i | 0
O=C1c2cccc3c([N+](=O)[O-])ccc(c23)C(=O)N1CCc1ccccn1 | 33 | 70 | -27 | -137 | 0 | -12 | i | 13
CCOc1ncccc1C(=O)NNC(=O)c1csc(N2CCOCC2)n1 | . | 2 | 13 | 3 | 3 | -4 | i | .
CCOC(=O)C1=C(C)N(c2ccc(C)c(C)c2)C(=O)/C1=C\c1ccco1 | -3 | . | 16 | 1 | -7 | -11 | i | -1
COc1cccc2c1cc1c(=O)n(CC(=O)NCCCN3CCCCC3)nc(C)n12 | -13 | -1 | . | 1 | -2 | -19 | i | 2
CC1(C)O[C@@H]2[C@H](O1)[C@@H](COS(=O)(=O)O)O[C@H]2n1cnc2c(=O)[nH]cnc21 | . | 12 | 20 | 0 | 1 | -13 | . | .
CCCCN1C(=O)C2C3C=CC(C2C1=O)C1C2C(=O)N(CCCC)C(=O)C2C31 (stereo not drawn) | 7 | 20 | -16 | 2 | 4 | . | i | -5
Cn1ccc(NS(=O)(=O)c2cc(Br)ccc2Br)n1 | . | 14 | -4 | -2 | 3 | -3 | . | .
Cc1ccccc1C(=O)NC(CC(C)C)C(=O)NN1C(=O)c2ccccc2C1=O (stereo not drawn) | 1 | -17 | 11 | 0 | 6 | . | i | -6
COC(=O)CCCNC(=O)CC1C(=O)NCCN1Cc1ccoc1 (stereo not drawn) | -2 | 6 | -8 | -2 | -3 | . | i | 2
COc1ccccc1C(=O)N/C(=C\c1cn(C)c2ccccc12)C(=O)NCCCn1ccnc1 | -9 | -18 | -1 | 0 | 1 | . | i | -2
CC1CCCCC1NC(=O)CO/N=C/c1ccc(OC(F)F)cc1 (stereo not drawn) | -2 | 12 | 11 | -1 | 1 | . | i | 2
CCOC(=O)N1CCN(C(=O)c2cnn(-c3ccccc3)c2NC(=O)c2ccccc2F)CC1 | 6 | -7 | . | -1 | 3 | 0 | i | 11
CC(C)OCP(=O)(c1ccccc1)c1ccccc1 | 0 | -12 | -78 | 3 | 2 | . | i | 9
Cc1cc(C)c(NC(=O)CC(C)(C)C)c(Cl)c1 | 4 | -9 | . | -1 | 0 | . | i | 3
Cc1ccc(S(=O)(=O)N2CCC(C(=O)NC3CCCC3)CC2)cc1Cl | 6 | . | 18 | 1 | -2 | 8 | i | -4
CC(C)NC(=O)c1ccc(-n2c(=S)[nH]c3ccccc3c2=O)cc1 | 3 | -6 | -1 | . | . | . | i | 16
COc1ccc(C(=O)c2sc3nc(C)cc(-c4cccs4)c3c2N)cc1OC | 4 | 41 | 17 | -144 | -11 | -19 | i | 27
COC(=O)Nc1ccccc1C(=O)N1CCCCC1 | 3 | -10 | -10 | -2 | 1 | -10 | i | 10
COC(=O)C(NC(C)=O)(Nc1nc2ccc(S(C)(=O)=O)cc2s1)C(F)(F)F (stereo not drawn) | 0 | -6 | . | 11 | 3 | -13 | i | -1
COc1cc(CC(=O)Nc2nccs2)cc(OC)c1OC | 1 | 5 | -127 | -1 | 1 | -11 | i | -4
CCOC(=O)c1c(C)[nH]c(C(=O)CSc2nccc(C)n2)c1C | -5 | -1 | -33 | 0 | -1 | . | i | 3
Cc1ccccc1NC(=O)c1ccc(OCc2c(C)noc2C)cc1 | . | . | -3 | 5 | -1 | 1 | . | .
Cc1ccc(NC(=O)C2CC(=O)N(c3ccc4c(c3)OCCO4)C2)nc1 (stereo not drawn) | . | -8 | 8 | 0 | 1 | -19 | i | .
CCCc1cc(=O)[nH]c2nnc(SCC(=O)Nc3cccc(NC(C)=O)c3)n12 | . | 13 | 6 | 8 | 3 | -6 | i | .
COc1ccc(CN2C(=O)c3ccccc3C2=O)cc1C(=O)N(C)CC(=O)Nc1c(C)cccc1C | . | -20 | . | -4 | -2 | -15 | . | .
CCc1ccc(NC(=O)N2CCCCCC2)cc1 | -5 | 6 | -39 | -3 | 1 | -9 | i | 4
CCN1CCN(CC(=O)n2c3c(c4ccccc42)CC(C)CC3)CC1 (stereo not drawn) | -2 | 11 | . | 0 | -1 | -9 | i | -3
O=C(c1ccc2nc(N3CCCCC3)sc2c1)N1CCN(c2ccccn2)CC1 | -8 | 15 | -14 | -2 | -4 | -18 | i | 3
Cc1ccc(/C=N/c2sc3c(c2C#N)CCC3)o1 | 31 | -7 | . | -5 | 4 | -18 | i | 26

In the list so far, these have an aryl thioether with sulfur outside any ring.
SMILES | eIF4H FP inh | CSC inhib | HIV Env fusion | MT1-MMP act inh | MT1-MMP act inh RFP | Yeast UUG start | Rce1 inh | PABP polyA inh | others
CCOC(=O)c1c(C)[nH]c(C(=O)CSc2nccc(C)n2)c1C | -5 | -1 | -33 | 0 | -1 | . | i | 3
CCCc1cc(=O)[nH]c2nnc(SCC(=O)Nc3cccc(NC(C)=O)c3)n12 | . | 13 | 6 | 8 | 3 | -6 | i | .

More records follow:
SMILES | eIF4H FP inh | CSC inhib | HIV Env fusion | MT1-MMP act inh | MT1-MMP act inh RFP | Yeast UUG start | Rce1 inh | PABP polyA inh | others
Cc1ccc(C(=S)NCS(=O)(=O)c2ccc(C)cc2)cc1 | 1 | -15 | -13 | -1 | -1 | . | i | 4
Cc1ccc2[nH]cc(CCNC(=O)c3ccco3)c2c1 | -11 | 15 | -4 | 2 | 6 | 1 | i | 9
CC(=O)Nc1ccc(S(=O)(=O)NCc2nc(-c3ccccc3Cl)no2)cc1 | 7 | -10 | 1 | 5 | 2 | 0 | i | 2
CCOC(=O)c1cc(C(C)(C)C)oc1CNC(=O)c1c(C)oc2c1CCCC2 | -1 | -9 | -21 | 0 | -2 | -16 | i | -11
Cc1c(C(=O)OCC(=O)c2c(N)n(CC(C)C)c(=O)n(C)c2=O)oc2ccccc12 | -3 | . | -32 | 4 | -11 | -5 | i | 2
CCCCS(=O)(=O)c1sc2nc3c(cc2c1N)CCCC3 | -7 | -7 | . | 11 | -14 | -22 | i | 7
O=C(NCCN1CCOCC1)c1cc(Sc2cccc(Cl)c2)nc2ccccc12 | 2 | 6 | 15 | 0 | -2 | 23 | i | -5
Cc1cc(C)c2sc(N(CCCN(C)C)C(=O)c3ccc(Br)s3)nc2c1 | -4 | 11 | -1 | 3 | 2 | 10 | i | 6
Cc1ccc(C)c(NC(=O)CSc2nnc(-c3ccccc3)o2)c1 | -10 | 4 | 8 | 3 | 2 | -9 | i | -6
COC(=O)c1ccc(COc2ccc(/C=N/Nc3nc(C)cc(=O)[nH]3)cc2)cc1 | 10 | -11 | 2 | 1 | -1 | -30 | i | 3
CCOC(=O)c1[nH]c2ccc(C)cc2c1N | 12 | -15 | -92 | -2 | -1 | -8 | i | 19
CCC(=O)OCC(=O)c1cc(C)n(-c2ccc(Br)cc2)c1C | -12 | -8 | 35 | 1 | -5 | -22 | i | 1
CCC(CC)C(=O)NCCc1cc2ccc(C)cc2[nH]c1=O | -8 | -6 | 15 | 4 | 5 | -36 | i | -12
COc1ccc(CCNC(=O)CCCOc2cccc(C)c2C)cc1OC | 2 | 6 | 12 | 4 | -6 | . | i | 4
Cc1cc(=O)[nH]c(/N=C(\N)Nc2ccc(SC(F)F)cc2)n1 | -6 | -5 | 3 | 1 | -2 | -14 | i | 8
COCCCNC(=O)C1CCC(CNS(=O)(=O)c2ccc(OC)cc2)CC1 (stereo not drawn) | 6 | 10 | -3 | -1 | 5 | -8 | i | 0
CCN(CC(O)c1cccc(O)c1)C(=O)C12CC3CC(CC(C3)C1)C2 (stereo not drawn) | -2 | 6 | 74* | -3 | -3 | 4 | i | 12
Cc1ccc(C2(C)NC(=O)N(CC(=O)Nc3ccc(Cl)c(S(=O)(=O)N4CCCCC4)c3)C2=O)cc1 (stereo not drawn) | . | 15 | 25 | 1 | -6 | -5 | i | .
O=C(O)c1cnn(-c2ccccc2)c1-n1cccc1 | 3 | -12 | -43 | 1 | 4 | -14 | i | 0
Cc1cc(C)c2c(CN3CCC(C)CC3)cc(=O)oc2c1 | -9 | 0 | -12 | -7 | 0 | -11 | i | 2
CCCCCn1c(=O)[nH]c2cc(C(=O)NCCCN(C)Cc3ccccc3)ccc2c1=O | 1 | -1 | 11 | -1 | -3 | -6 | i | -8
COC(C(=O)NCc1ccccc1C)c1ccccc1 (stereo not drawn) | -10 | -8 | . | 5 | 5 | . | i | -6
Cc1ccc(NC(=O)/C(=C/c2ccc([N+](=O)[O-])cc2)NC(=O)c2ccccc2)cc1 | 2 | -7 | -35 | 4 | 2 | . | i | -4
COc1cccc(-c2c(C(=O)N/N=C/c3sccc3C)nnn2-c2nonc2N)c1 | 1 | -11 | 22 | -17 | -6 | -22 | + | 8
Cc1c(O)ccc2c(CC(=O)N[C@@H](Cc3ccccc3)C(=O)O)cc(=O)oc12 | -6 | -11 | -2 | 3 | -1 | -2 | i | 16
CSc1ccccc1NC(=O)CN1CCN(S(=O)(=O)c2ccccc2[N+](=O)[O-])CC1 | . | -10 | . | 4 | -1 | 7 | . | .
CCOCCCn1c(SCC(=O)NC2CCCC2)nc2ccccc2c1=O | -9 | -5 | 6 | -2 | 3 | -7 | i | 14
